Source: PubChem BioAssay (several laboratories)
Insulin prom inh = TRM-6 insulin promoter activity inhibition | inhibition, % at 2 µM | TRM-6 cells (human fetal islet line), insulin promoter-eGFP reporter, imaging; reporter expression induced with tamoxifen | hit rate 0.9% among 130,000 | AID 1273;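 active means inhibition above the mean plus 3 SD, with well images judged a real hit on visual review, cut at about 60% in these data, passing the limit was not always enough; inconclusive means inhibition over the cutoff but images rejected on review; inactive means inhibition not above the cutoff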
RGS16-Gao = regulators of human RGS16-Galphao interaction; bead-based flow cytometry RGS16-Galphao binding, fluorescence; actives lie on both sides; hit rate 0.38% among 220,000; O15492+P09471; binding response (% of control), % at 10 µM;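 active means below 25% or above 175%, edge rows of some plates excepted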;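 further: Galphao activated by GDP with aluminum fluoride before binding; 100% = wells without compound and 0% = beads without RGS; some results beyond the cut were filed as inactive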
Target sequence (O15492 whole entry, looked up): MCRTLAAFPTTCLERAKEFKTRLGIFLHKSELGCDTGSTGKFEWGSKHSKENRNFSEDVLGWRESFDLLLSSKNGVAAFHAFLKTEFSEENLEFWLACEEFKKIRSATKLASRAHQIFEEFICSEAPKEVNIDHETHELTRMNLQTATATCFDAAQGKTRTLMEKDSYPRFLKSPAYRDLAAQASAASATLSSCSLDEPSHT
Target sequence (P09471 whole entry, looked up): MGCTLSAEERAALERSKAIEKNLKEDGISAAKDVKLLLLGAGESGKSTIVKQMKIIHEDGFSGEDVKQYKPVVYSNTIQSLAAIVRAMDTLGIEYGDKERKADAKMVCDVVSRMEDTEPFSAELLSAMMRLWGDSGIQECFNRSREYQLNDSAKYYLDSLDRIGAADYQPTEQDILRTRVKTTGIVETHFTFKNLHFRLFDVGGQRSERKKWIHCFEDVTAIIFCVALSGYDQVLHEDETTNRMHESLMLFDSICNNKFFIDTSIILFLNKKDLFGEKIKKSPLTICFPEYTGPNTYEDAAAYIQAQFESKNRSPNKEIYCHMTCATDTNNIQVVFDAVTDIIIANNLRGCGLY
HSV replic up = increases HSV replication in cells. hit rate 0.005% among 220,000. HSV replication augmentation in cells, fold increase. AID 1956. maximum fold increase;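 active means peak rise of 1.5-fold or more in the series; inconclusive means self-fluorescent or not available for retest; tested in PC3 cells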;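 further: first round at 10 µM; read as green reporter fluorescence; hits show the peak of a series up to 25 µM; 1 = signal of infected wells without compound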
PKD1 kinase inh = PKD1 (human) kinase inhibition | AID 797 | hit rate 0.056% among 200,000 | Q15139 | inhibition, %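 (about 10 µM by stock and volumes)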 | PKD1 kinase fluorescence polarization assay;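 active means inhibition of 50% or more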;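 further: controls were vehicle for no effect and a reference inhibitor for full effect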
GALR2 agonist = activates the human galanin receptor 2 | O43603 | GALR2-expressing cells, agonist activation read-out | activation, %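 (tested at 5 µM)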 | hit rate 0.48% among 140,000 | AID 803;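 active means above mean plus 3 SD of all compounds, about 5% in these data, not always enough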;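 further: 0% = vehicle buffer wells and 100% = reference agonist at full effect; tested in CHO reporter cells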
Target sequence (O43603 whole entry, looked up): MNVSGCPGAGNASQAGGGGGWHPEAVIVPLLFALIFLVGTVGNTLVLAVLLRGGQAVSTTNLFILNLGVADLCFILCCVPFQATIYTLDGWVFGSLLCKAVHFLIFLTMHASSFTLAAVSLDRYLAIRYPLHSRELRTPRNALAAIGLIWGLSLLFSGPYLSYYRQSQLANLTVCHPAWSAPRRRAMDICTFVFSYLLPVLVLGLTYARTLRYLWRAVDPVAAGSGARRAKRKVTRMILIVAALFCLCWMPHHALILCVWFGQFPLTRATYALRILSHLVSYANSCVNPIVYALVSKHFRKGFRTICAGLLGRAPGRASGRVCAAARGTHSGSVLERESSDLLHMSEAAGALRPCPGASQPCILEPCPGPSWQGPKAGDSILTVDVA
Insulin prom inh cell count = also measured in Insulin prom inh; calls as there; normalized cell count, %; measured here: cell count, toxicity; reference of the scale not given here;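 cells exposed to compound for 48 h; stained nuclei by imaging scaled within each plate; lower means fewer cells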
HSV replic up primary fold = second read-out of HSV replic up, no call of its own (marks repeat the call); fold increase; compound at 10 µM; measured here: primary screen fold increase 10 uM; tested in PC3 cells;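 GFP signal in the first replicate; 1 = infected wells without compound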
* = called active by the depositor; i = inactive; ? = inconclusive; nt = no result given; & = joins results of further samples.

SMILES	Insulin prom inh	Insulin prom inh cell count	RGS16-Gao	HSV replic up	HSV replic up primary fold	PKD1 kinase inh	GALR2 agonist
O=C(Nc1ccc(S(=O)(=O)Nc2nccs2)cc1)c1cc(=O)[nH]c2ccccc12	nt	nt	100	i	1.2	nt	nt
COc1ccc(N(Cc2cc3ccc(C)cc3[nH]c2=O)C(=O)c2ccco2)cc1	20	114	96	i	0.97	-9	-1.8
N/C(=N\OC(=O)Cc1ccccc1)c1cccc(Br)c1	nt	nt	103	i	1	0	nt
CCN(CC)S(=O)(=O)c1ccc(N2CCOCC2)c(NC(=O)c2ccccc2)c1	-38	47	174	i	0.96	15	-1.0
O=C(CCC(=O)Nc1ccccc1)NNC(=O)c1ccco1	-42	107	101	i	0.86	11	-3.4
Cc1ncc([N+](=O)[O-])n1CC(C)O (stereo not drawn)	38	78	98&97	i	0.95	-4	0.0
O=C(CCC(=O)c1ccc(-c2ccccc2)cc1)Nc1cccnc1	nt	nt	110	i	0.94	nt	nt
CC1CCc2ccccc2N1C(=N)N(C)C (stereo not drawn)	nt	nt	94	i	0.93	-5	nt
CCCCNC(=O)c1onc(CSc2ccc(F)cc2)c1C(=O)O	14	69	102	i	0.87	-15	-2.4
CCN(CC)c1nc2c3c(nc4c(c3c1C#N)CC(=O)N4c1ccc(Cl)cc1)NC(C)=N2	nt	nt	102	?	nt	1	0.5
CN(C)S(=O)(=O)Nc1ccccc1C(N)=O	12	59	103	i	0.92	1	0.0
CN(C)C(=O)[C@@H]1C[C@H]1[C@@H](NC(=O)OCc1ccccc1)c1ccccc1	10	57	38	i	1.2	-2	-2.8
Cc1ccc(Nc2nc(N)nc(CSc3nnnn3-c3ccccc3)n2)cc1	40	156	105	i	0.8	-1	2.0
Cc1ccc(C(=O)OCC(=O)NCc2cccs2)c(C)c1	nt	nt	104	i	0.97	1	nt
N#CC1=C(S)N=C(N)C(c2nc(-c3ccccc3)cs2)C12CCCCC2 (stereo not drawn)	nt	nt	90	nt	nt	-2	-3.5
Cc1nnc(SCC(=O)NC(=O)NC(C)(C)C)s1	57	134	102	i	0.97	-1	nt
Cc1ccsc1C(=O)OCC(=O)Nc1ccc(Cl)cc1C(F)(F)F	nt	nt	102	i	1.1	3	-1.2
Cn1c(SCC(=O)Nc2ccc3nc(SCC(=O)N4CCCC4)sc3c2)nnc1-c1ccccc1	nt	nt	98	i	0.79	11	-2.9
Cn1c(=O)c2c(nc(Sc3n[nH]c(N)n3)n2Cc2ccccc2Cl)n(C)c1=O	nt	nt	96	i	0.72	-3	-0.9
CC(C)(C)NC(=O)CC(CC(=O)O)c1ccccc1 (stereo not drawn)	nt	nt	106	i	0.95	-1	-3.1

Reprinted at random: 4 compounds from above.
SMILES	Insulin prom inh	Insulin prom inh cell count	RGS16-Gao	HSV replic up	HSV replic up primary fold	PKD1 kinase inh	GALR2 agonist
CCN(CC)S(=O)(=O)c1ccc(N2CCOCC2)c(NC(=O)c2ccccc2)c1	-38	47	174	i	0.96	15	-1.0
CC1CCc2ccccc2N1C(=N)N(C)C (stereo not drawn)	nt	nt	94	i	0.93	-5	nt
Cn1c(=O)c2c(nc(Sc3n[nH]c(N)n3)n2Cc2ccccc2Cl)n(C)c1=O	nt	nt	96	i	0.72	-3	-0.9
CCCCNC(=O)c1onc(CSc2ccc(F)cc2)c1C(=O)O	14	69	102	i	0.87	-15	-2.4

(list continues)
SMILES	Insulin prom inh	Insulin prom inh cell count	RGS16-Gao	HSV replic up	HSV replic up primary fold	PKD1 kinase inh	GALR2 agonist
CN1CCN(C(=S)Nc2ccc(Cl)cc2)CC1	-65	110	99	i	0.98	-9	nt
COC(=O)N/N=C/c1cc(Cl)c(OCc2ccccc2F)c(OC)c1	nt	nt	109	i	0.93	nt	nt
O=c1c2ccccc2nnn1CSc1ccccc1	nt	nt	107	i	0.98	16	0.3
Cc1ccc(Cl)cc1NC(=O)CCC(=O)Nc1cc(Cl)ccc1C	8	133	99	i	1.2	4	-0.8
O=C(CCCN1C(=O)c2ccccc2C1=O)NCC1CCCO1 (stereo not drawn)	-11	172	102	i	0.89	-1	0.4
C=CCSC1=C(C#N)C(c2ccccc2Cl)CC(=O)N1 (stereo not drawn)	-105	110	102	i	0.85	-7	0.3
CCOC(=O)C1(CC2CCCCO2)CCN(C(=O)Nc2cccc(SC)c2)CC1 (stereo not drawn)	nt	nt	103	i	1	-1	nt
CC(C)CNC(=S)NC(=O)c1ccccc1Cl	0	123	110	i	0.87	-12	-0.6
COC(=O)n1c(=O)oc2ccc(S(=O)(=O)N3CCCCC3)cc21	nt	nt	101	i	1.1	nt	nt
O=C(NCc1csc(-c2ccccc2)n1)c1ccco1	nt	nt	100	i	0.97	-9	0.1
O=c1c2ccccc2nc(-c2ccc(Cl)cc2Cl)n1O	-31	124	99	i	0.99	0	nt
CN(C)CCNC(=O)CN1C(=O)COc2ccc(C(C)(C)C)cc21	nt	nt	136	i	0.87	-2	-1.6
CCC(CC)NCCOC(=O)c1ccc([N+](=O)[O-])cc1	nt	nt	100	i	1.1	nt	nt
CCOC1=NN(c2ccccc2)C(=O)/C1=C\N(C)C	31	120	98	nt	nt	-3	nt
COc1ccc(CNC(=O)Cn2cc([N+](=O)[O-])nc2C)cc1	-33	92	105	i	0.95	-6	-1.6
CCOC(=O)C1CCN(C(=O)c2c(-c3ccccc3)noc2C)CC1	nt	nt	95	i	0.88	3	nt
O=C(COc1ccccc1)NNc1nc2c(F)cc(F)cc2s1	0	78	98	i	0.91	-5	nt
COCCn1c(N)c(C(=O)Nc2sc3c(c2C(=O)OC)CCCC3)c2nc3ccccc3nc21	-45	106	93	i	0.98	-7	-2.2
O=C(NCc1nc2ccccc2[nH]1)c1c(F)c(F)c(F)c(F)c1F	nt	nt	103	i	0.86	-8	nt
COc1cc(C2=NC(CO)(CO)CO2)cc(OC)c1OC	55	97	108	i	1.1	2	nt

Next section (five carried over from the part before).
SMILES	Insulin prom inh	Insulin prom inh cell count	RGS16-Gao	HSV replic up	HSV replic up primary fold	PKD1 kinase inh	GALR2 agonist
CCOC(=O)C1CCN(C(=O)c2c(-c3ccccc3)noc2C)CC1	nt	nt	95	i	0.88	3	nt
O=C(COc1ccccc1)NNc1nc2c(F)cc(F)cc2s1	0	78	98	i	0.91	-5	nt
COCCn1c(N)c(C(=O)Nc2sc3c(c2C(=O)OC)CCCC3)c2nc3ccccc3nc21	-45	106	93	i	0.98	-7	-2.2
O=C(NCc1nc2ccccc2[nH]1)c1c(F)c(F)c(F)c(F)c1F	nt	nt	103	i	0.86	-8	nt
COc1cc(C2=NC(CO)(CO)CO2)cc(OC)c1OC	55	97	108	i	1.1	2	nt
OC1CCN(C(=S)Nc2ccc(Oc3ccccc3)cc2)CC1	nt	nt	100	i	0.86	1	nt
COc1ccc(C(=O)NCc2ccc3[nH]c(C)cc3c2)cc1OC	33	136	105	i	0.94	1	nt
CC1CCc2sc(NC(=S)NC(=O)c3ccccc3)c(C#N)c2C1 (stereo not drawn)	-17	74	104	i	0.89	3	-0.1
CCOc1ccccc1C(=O)N/N=C/c1cccc2cccnc12	-10	108	104	i	0.78	1	-1.2
Cc1ccc(S(=O)(=O)NNc2ccccc2)c(C)c1	34	98	81	i	0.99	-4	-0.3
O=C(CSc1n[nH]c(-c2ccccc2)n1)Nc1ccc(Br)cn1	68	83	104	i	0.87	-2	-2.5
O=C(C1=NN[C@@H]2C(=O)N(c3cccc(C(F)(F)F)c3)C(=O)[C@H]12)c1cnccn1	nt	nt	93	i	0.89	nt	nt
Cc1noc(C)c1CSc1nnc(-c2ccncc2)n1-c1cccc(Cl)c1C	nt	nt	102	i	1	-10	0.0
Cn1ncc(C#N)c1/N=C/N(Cc1ccccc1)Cc1ccccc1	-13	84	104	i	1.1	-11	-3.2
Cc1cc(=O)n2nc(N3CCCC(C(=O)NCCC4=CCCCC4)C3)sc2n1 (stereo not drawn)	-6	89	111	i	0.96	-6	0.0
Cc1c(C(=O)O)oc2c1ccc1ccccc12	45	169	99	i	0.87	-2	-2.3
O=C(Nc1ccc(Cl)c([N+](=O)[O-])c1)c1ccncc1	nt	nt	105	i	0.93	2	-0.9
N#CCCn1cc(/C=C(\C#N)c2nc3ccccc3s2)c(-c2ccc(F)cc2)n1	74*	51*	65	i	1	-7	-0.8
O=C(NC1CCCC1)C1CCC(CNS(=O)(=O)c2cccs2)CC1 (stereo not drawn)	28	105	98	i	1.1	-4	-1.4
CCn1c(CNc2ccc(Cl)cc2)nnc1SCC(=O)OC1CCCCC1	67	42	101	i	0.94	-6	-0.7
CCOC(=O)c1ccc(NC(=O)CCOc2ccccc2)cc1	0	140	115	i	0.91	0	0.4
O=C(Nc1ccccc1)N1C(=O)C2(OCCO2)c2ccccc21	18	97	124	i	0.89	-8	-1.1
CCOc1cc(N2CCOCC2)c(OCC)cc1NC(=O)c1ccc(OCc2c(C)noc2C)c(OC)c1	-10	91	100	i	0.89	-6	-0.2
O=C1C2CC=CCC2C(=O)N1c1ccc(NCCc2cccc(F)c2)c([N+](=O)[O-])c1 (stereo not drawn)	12	103	97	i	0.69	0	-0.3
O=C(Nc1nnc(C2CC2)s1)c1cccc(S(=O)(=O)N2CCc3ccccc32)c1	-9	154	109	i	0.95	-1	-0.9
c1ccc2c(-c3cc(C4CCNCC4)[nH]n3)cccc2c1	-22	131	110	i	0.73	5	nt
C=CCSc1ccsc1C(=O)O	-31	110	99	i	0.87	3	-2.8
COc1ccnc(Oc2ccc(F)cc2)c1-c1ncn[nH]1	-71	59	102	nt	nt	0	nt
Cc1cccc(NC(=O)Cc2coc3ccc4ccccc4c23)n1	-15	94	102	i	0.74	-8	-1.4
CC(=O)Nc1nonc1NC(=O)COc1ccccc1	nt	nt	50	i	1.1	-2	nt
CC(=O)C1=C(C)NC(=O)NC1c1ccccc1 (stereo not drawn)	-145	56	96	i	0.96	2	-1.1
Brc1ccc(CSc2nnc(-c3ccccn3)n2Cc2ccco2)cc1	0	105	95	i	0.72	1	-1.1
Cc1cc(NC(=O)CCC2CCCCC2)no1	5	122	102	i	0.99	-3	1.2
Cc1cccc(C(=O)NC(=S)NNC(=O)c2ccccc2Cl)c1	0	84	103	i	0.91	-11	-0.1
CCc1nnc(NS(=O)(=O)c2ccc(NC(=S)NC(=O)c3ccc(Br)cc3)cc2)s1	8	67	105	i	1.1	-7	-1.1
C[N+]1(C2CCC3CCCC2C3O)CCCCC1 (stereo not drawn)	50	91	112	i	1	2	nt
CCOC(=O)Cc1nnn(CC(=O)OCC)n1	50	113	103	i	0.99	-3	-3.9
CCOc1ccc(/C=C2\SC(=S)N(N3C(=O)C4CC4C3=O)C2=O)cc1 (stereo not drawn)	nt	nt	94	i	0.98	-3	nt
N#C/C(C(=O)c1ccccc1)=C1/CCCCCN1	11	79	105	i	0.84	-6	-0.5
COc1ccc(N(CC(=O)NCCSc2ccccc2)S(C)(=O)=O)cc1	nt	nt	102	i	0.86	-9	nt
COc1ccccc1N1CCN(C(=O)Nc2ccc(F)c(Cl)c2)CC1	nt	nt	91	i	0.96	2	nt
CCOC(=O)c1ccc(NC=C2C(=O)OC3(CCCCC3)OC2=O)cc1	-23	116	104	i	0.93	-3	-0.5
CCOc1ccccc1/C=N/NC(=O)CNC(=O)c1ccc(S(=O)(=O)N2CCOCC2)cc1	30	113	101	i	0.94	-9	-1.0
CCCOc1ccc(OCCOCCN2CCc3ccccc3C2)cc1	-27	70	105	i	0.91	-1	-1.6
COc1cc(/C=C2\SC(=N)N(c3ccc(F)cc3)C2=O)ccc1O	nt	nt	94	?	nt	-4	nt
CCCCOCCCNC(=O)C1CCCCC1	nt	nt	66	i	0.92	-3	-1.7
COc1cc(/C=N/NC(=O)c2cccnc2)ccc1OC(=O)c1ccc([N+](=O)[O-])cc1	0	100	101	i	0.9	3	nt
O=C(Nc1ccc(F)cc1)N(Cc1cccs1)Cc1cc2cc3c(cc2[nH]c1=O)OCO3	-12	109	97	i	0.91	1	0.4
CCOC(=O)c1ccc(-n2c(=O)[nH]c3ccccc3c2=O)cc1	-10	144	104	i	1	-2	0.0
